# Autofluor counter: flagged as autofluorescent in microsphere protease counterscreen | AID 624483 | fluorescence intensity (no concentration beside the values) | hit rate 3.1% among 360,000 | compound autofluorescence counterscreen, microsphere flow cytometry; hits give high values;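 active = at least 3 SD above the mean of all compounds, about 16000 in these data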;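 note: 100 nL of 1 mM stock went into each well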
# PrP 5UTR inh: inhibition of PrP 5' UTR reporter expression; cell-based PrP 5' UTR mRNA reporter, plate reader; inhibition, % (concentration not given with the values); hit rate 0.35% among 340,000;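 active = every replicate at 50% or more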;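 note: 0 = median of the neutral control wells; tested in H4 reporter cells; numbers are from one replicate; inactives centre near -14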
# RN4220 kill: S. aureus RN4220 growth inhibition; inhibition, % (no concentration beside the values); AID 1259311; hit rate 0.33% among 330,000; OD600, 16 h;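 active = z-score of -3 or lower and OD600 up to 0.18 on both plates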;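 note: plate controls were untreated cells for no effect and reference antibiotic for full effect; stock transfer was 100 nL into about 80 µL; one replicate is shown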
# ugtP null kill: kills S. aureus RN4220 lacking UgtP. S. aureus RN4220 ugtP deletion, OD600 growth, 16 h; some inactives read as strong as hits. hit rate 0.54% among 330,000. growth inhibition, % (no concentration beside the values);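 active = z-score under -3 and OD600 up to 0.15 on both plates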;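 note: plate controls were untreated wells for no effect and antibiotic for full effect; wells of about 80 µL received 100 nL stock; the first replicate is given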
# BJeLR lethal: kills HRASV12-expressing BJeLR cells; BJeLR (HRASV12) viability, CellTiter-Glo ATP luminescence, 48 h; reference of the scale not given here; hit rate 0.17% among 300,000; inhibition, % (concentration not given with the values);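 active = replicate mean above 50%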;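 note: 50 nL library stock added to about 25 µL; numbers are from one replicate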
# Mtb hypoxia rep: reduces hypoxia-regulated biosensor signal in M. tuberculosis | M. tuberculosis hypoxia-regulated fluorescent reporter, fluorescence | hit rate 0.1% among 300,000 | fluorescence inhibition, % (concentration not given with the values);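 active = 35 to 45% if threefold the growth effect, above 45% if 1.5-fold the growth effect; inactive = the rest, general growth blockers included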;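 note: wells of about 50 µL received 100 nL stock; 0% = vehicle wells and 100% = reference inhibitor wells; whole bacteria with a GFP reporter of the hypoxia response; strong numbers were not always called active; many hits fall short of the cut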
# Mtb hypoxia rep growth: also measured in Mtb hypoxia rep; calls as there; growth inhibition, %; measured here: M. tuberculosis growth (absorbance);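 0% = vehicle and 100% = reference antibiotic; read after six days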
# Starred values were filed as active, the others as inactive; nt = not tested or not shown.
# Sample of the layout (two entries):
Molecule,Autofluor counter,PrP 5UTR inh,RN4220 kill,ugtP null kill,BJeLR lethal,Mtb hypoxia rep,Mtb hypoxia rep growth
COc1ccc(/C=C2\CCC(C3CCCC3)C2=O)cc1Cn1cccn1 (stereo unspecified),6794,-24,-0.2,19,-7,-3,-4
COc1ccccc1NS(=O)(=O)c1cccc(NC(=O)c2ccc3ccccc3n2)c1,10619,-20,3.3,-4,-16,3,-3

# The whole of this part, previewed entries included:
Molecule,Autofluor counter,PrP 5UTR inh,RN4220 kill,ugtP null kill,BJeLR lethal,Mtb hypoxia rep,Mtb hypoxia rep growth
COc1ccc(/C=C2\CCC(C3CCCC3)C2=O)cc1Cn1cccn1 (stereo unspecified),6794,-24,-0.2,19,-7,-3,-4
COc1ccccc1NS(=O)(=O)c1cccc(NC(=O)c2ccc3ccccc3n2)c1,10619,-20,3.3,-4,-16,3,-3
Cc1nn(Cc2c(F)cccc2Cl)c(=O)c2ccccc12,3657,-16,-0.9,5,-5,-1,14
COc1ccc(-c2nc(-c3ccccn3)ncc2S(C)(=O)=O)cc1,3095,-21,-1.5,-2,-2,-6,20
C[C@H](CO)N1C[C@H](C)[C@@H](CN(C)C(=O)Nc2ccc3c(c2)OCO3)Oc2c(NC(=O)Cc3ccccc3)cccc2C1=O,3081,0,5.0,17,nt,1,1
COC(=O)c1ccc(S(=O)(=O)N2CCCCC2)o1,9485,-18,2.4,6,1,21,10
CCOC(=O)c1ccc(NC(=O)CCc2ccc(CC)o2)cc1,6023,-28,-0.9,-5,6,-5,6
CN(C)/C=C1\C=C2C(=O)c3ccccc3N2C1=O,5420,-29,nt,nt,4,nt,nt
CC(C)COc1ccc(S(=O)(=O)n2cc(F)c(=O)[nH]c2=O)cc1,3051,-3,20,9,-19,4,18
COC(=O)C1=C(C(=O)OC)C2N(C)c3ccccc3[C@@]23CC(CO)N=C3N1 (stereo partly specified),nt,nt,4.1,0,nt,-2,8
CC1(C)N=C(C(=O)c2ccccc2)N(O)C1(C)O (stereo unspecified),7727,3,2.7,6,-4,3,5
Fc1ccc(C(OCCN2CCCC2)c2ccc(Br)cc2)cc1 (stereo unspecified),7684,-2,-0.3,7,14,7,8
N#CC(=C1Nc2ccccc2N1)S(=O)(=O)c1ccccc1,4809,-4,2.1,-7,-9,-11,0
O=C(COC(=O)CSc1ccc(F)cc1)NC1CCCCCC1,3937,-13,3.2,4,nt,8,7
O=c1cc(C(F)(F)F)nc(-c2ccccc2)[nH]1,21831*,-22,8.2,6,10,11,2
CN1CCN(C(=O)C2(NC(=O)Nc3ccccc3Cl)CCCCC2)CC1,3198,-17,-13,-4,-5,8,6
COc1ccccc1NC(=O)/C(=N/OCc1ccc(F)cc1)C(C)=O,2209,-11,nt,nt,-10,nt,nt
CC(C)CCOc1ccc(NC(=O)C2OC3OC(C)(C)OC3C3OC(C)(C)OC23)cc1 (stereo unspecified),8935,-17,1.2,0,-8,2,3
COc1ccc2oc(=O)c(C(=O)N3c4ccccc4CC3C)cc2c1 (stereo unspecified),10077,nt,3.3,6,2,6,2
Cc1ccccc1C(=O)Nc1ccc(N(C)C)c2ccccc12,3586,-34,8.3,-2,-13,-5,5
Cc1ccc(C(=O)NCCc2c[nH]c3ccccc23)c(C)c1,3925,-29,-2.6,2,4,-8,-2
O=C(CN(C(=O)CCC(=O)Nc1nccs1)c1ccc(F)cc1)NCc1ccccc1,3690,-15,-1.6,5,-7,-6,7
O=C(Cc1ccccc1F)OCC(=O)N1CCc2ccccc21,2167,-13,-1.5,9,-2,3,-7
COc1ccc(NC(=O)CN2CCN(c3c(C)cc(C)cc3C)CC2)cc1,nt,-17,6.0,20,0,-3,6
COc1ccccc1N1CCN(CC(=O)Nc2ccc(S(=O)(=O)N3CCCCCC3)cc2)CC1,3770,-3,2.0,6,nt,0,-3
O=C1CC2C(=O)NCCN2C(=NC(=O)c2ccccc2)N1 (stereo unspecified),3887,6,1.1,3,-3,14,1
CCCOc1ccc(-c2nnn(CC(=O)N3CCCCC3)n2)cc1,4558,-8,1.6,-4,7,4,6
COc1ccc(C(=O)Nc2scc(-c3ccc(Cl)cc3Cl)c2C(N)=O)cc1,5032,-62,-0.9,-25,3,nt,nt
O=C(COC(=O)c1ccc2c(c1)OCCO2)NCc1ccccc1Cl,4641,-16,6.2,1,nt,8,5
CCCn1c(SCC(=O)N(C)CC(=O)Nc2ccc(Cl)cc2)n[nH]c1=O,8873,-14,1.8,2,nt,-1,8
CCCC(C)c1nnc(NC(=O)CCS(=O)(=O)c2ccccc2)s1 (stereo unspecified),3779,-28,12,23,-11,15,1
CN(C)C(=O)c1cnc(Sc2ncc(C(F)(F)F)cc2Cl)n1C,3111,-4,6.9,1,-3,nt,nt
O=C(CN1CCOCC1)Nc1cccc(C(=O)Nc2cccc(C(F)(F)F)c2)c1,3737,-22,-0.2,-7,3,3,6
Cc1nc2ccccc2c(=O)n1-c1ccc(-c2ccccc2)cc1,3748,-6,-0.2,0,-3,4,2
COc1ccc(N(CC(=O)NC2CCCC2)C(=O)Cn2nnc(-c3ccc(C)o3)n2)cc1,6711,-8,-0.1,-2,-16,-6,0
Cc1ccc(NC(=O)CC2SC(=O)NC2=O)cc1 (stereo unspecified),8238,-6,12,10,2,19,9
Cc1ccccc1OC(C)C(=O)N1CCN(c2ccccn2)CC1 (stereo unspecified),6339,-27,0.3,6,-9,11,-15
O=S(=O)(c1ccccc1)c1ccccc1/C=N\O,2280,-26,nt,nt,-6,nt,nt
O=C1C(=O)c2cccc3cccc1c23,2088,-24,2.2,5,4,-2,12
CCN1C(=O)c2cccc3c(NC(=O)c4ccccc4)ccc1c23,3055,-7,21,0,-3,-1,3
Oc1[nH]c2ccccc2c1C=NCC1CCCO1 (stereo unspecified),15838,-50,2.7,-6,6,13,4
CCC1(C)Cc2ccccc2C(=CC(=O)N2CCCCC2)N1 (stereo unspecified),nt,nt,4.1,0,nt,6,5
Cc1ccc(SCCCCN2CCNCC2)cc1,2223,-41,nt,nt,-2,nt,nt
CCCN(C(=O)CN1C(=O)NC2(CCCCCC2)C1=O)C1CCS(=O)(=O)C1 (stereo unspecified),4765,-3,8.3,3,-3,5,5
CC(C)c1ccc(-c2noc(C3CCCN(C(=O)c4ccc(F)cc4F)C3)n2)cc1 (stereo unspecified),22538*,-6,1.6,23,-5,2,8
Cc1cc(SCNC(=O)c2ccccc2)ncn1,8002,-2,-0.2,27,-3,5,6
CCOC(=O)c1ccc2c(c1)sc(=NC(=O)c1ccco1)n2CCOC,2307,-11,2.6,5,10,5,9
CCN=C1Sc2nc3ccc(OCC)cc3cc2CN1CCOC,3237,-7,-1.2,-5,0,9,4
CC(NC(=O)CSc1n[nH]c(N)n1)c1ccccc1 (stereo unspecified),6708,-10,2.9,2,-3,2,-6
COCCCNCC(=O)Nc1sc(C)c(C)c1C(=O)OC,4794,-19,4.6,1,0,nt,nt
CCN(CC)CCCNc1ccc(-c2nnc(-c3ccc(OCC(C)C)cc3)o2)cn1,4766,-22,nt,nt,15,nt,nt
CN(C)C(=O)CSC1c2ccccc2C(=O)N1c1ccccc1 (stereo unspecified),8441,nt,5.7,15,4,5,6
Cc1nn(-c2ccccc2)c(Cl)c1/C=C1\SC(=S)NC1=O,10907,-15,100*,99*,-2,14,7
Cc1cccc(S(=O)(=O)C(C#N)c2nc3ccccc3nc2N2CCOCC2)c1 (stereo unspecified),11086,8,24,2,11,4,12
Cc1cccc(NC(=O)c2cccc(NC3=NC4CS(=O)(=O)CC4S3)c2)c1 (stereo unspecified),4650,-7,1.7,-6,-5,0,7
CCC(CC)C(=O)N=C1SC2CS(=O)(=O)CC2N1CCc1ccc(OC)c(OC)c1 (stereo unspecified),3707,-10,4.7,13,5,3,3
CN(C)C(=O)CSc1cccc2cccnc12,2596,-12,2.1,0,10,nt,nt
O=C(c1ccc(F)cc1F)N1CCN(c2ccccn2)CC1,4943,-17,6.4,10,-5,1,3
CCn1c(=N)n(CC(O)COc2ccc(C)cc2)c2ccccc21 (stereo unspecified),5986,-10,0.0,0,16,3,-6
Cc1ccc(NC(=O)Cn2nc(C(=O)O)c3ccccc3c2=O)cc1S(=O)(=O)N1CCOCC1,3916,-11,2.9,5,nt,7,4

# (further entries)
Molecule,Autofluor counter,PrP 5UTR inh,RN4220 kill,ugtP null kill,BJeLR lethal,Mtb hypoxia rep,Mtb hypoxia rep growth
CCN(CC)CCNC(=O)c1cc2c(=O)n(CC)c3ccccc3c2s1,3789,1,-0.3,13,14,-3,9
Cc1c(Cl)cnc(NC(=O)COC(=O)C(NC(=O)c2ccco2)C(C)C)c1Cl (stereo unspecified),3755,3,1.1,-2,-6,-10,11
COc1ccc(N2CCN(C(=O)c3cccc(NS(=O)(=O)c4cccc(F)c4)c3)CC2)cc1,4468,-10,-4.1,16,4,11,9
CCCN1CCN(C(=O)c2cc3c(s2)-c2ccccc2OC3)CC1,4129,-14,4.3,-2,-13,nt,nt
O=C(Nc1cccc(Cl)c1)Nc1ccc(Br)cc1F,7522,-34,41,67,-4,-7,0
CCOCCCN(C(=O)c1snc(C(N)=O)c1N)C(C(=O)NCCC(C)C)c1ccc(F)cc1 (stereo unspecified),3146,-3,1.0,12,8,-3,-8
Cc1ccnc(NS(=O)(=O)c2ccc(NC(=O)C3CCCCC3)cc2)n1,11165,-14,5.5,3,2,9,11
COc1cc(C2c3c(oc4ccccc4c3=O)C(=O)N2CCN2CCOCC2)cc(OC)c1OC (stereo unspecified),2843,-8,4.7,-7,6,1,-6

# Some of the entries so far, field by field:
Compound: CCOCCCN(C(=O)c1snc(C(N)=O)c1N)C(C(=O)NCCC(C)C)c1ccc(F)cc1 (stereo unspecified)
  Autofluor counter: 3146
  PrP 5UTR inh: -3
  RN4220 kill: 1.0
  ugtP null kill: 12
  BJeLR lethal: 8
  Mtb hypoxia rep: -3
  Mtb hypoxia rep growth: -8

Compound: Cc1c(Cl)cnc(NC(=O)COC(=O)C(NC(=O)c2ccco2)C(C)C)c1Cl (stereo unspecified)
  Autofluor counter: 3755
  PrP 5UTR inh: 3
  RN4220 kill: 1.1
  ugtP null kill: -2
  BJeLR lethal: -6
  Mtb hypoxia rep: -10
  Mtb hypoxia rep growth: 11

Compound: Cc1ccnc(NS(=O)(=O)c2ccc(NC(=O)C3CCCCC3)cc2)n1
  Autofluor counter: 11165
  PrP 5UTR inh: -14
  RN4220 kill: 5.5
  ugtP null kill: 3
  BJeLR lethal: 2
  Mtb hypoxia rep: 9
  Mtb hypoxia rep growth: 11

Compound: COc1cc(C2c3c(oc4ccccc4c3=O)C(=O)N2CCN2CCOCC2)cc(OC)c1OC (stereo unspecified)
  Autofluor counter: 2843
  PrP 5UTR inh: -8
  RN4220 kill: 4.7
  ugtP null kill: -7
  BJeLR lethal: 6
  Mtb hypoxia rep: 1
  Mtb hypoxia rep growth: -6
